# Assay outcomes: PubChem BioAssay, several laboratories
# ugtP null kill: growth inhibition of S. aureus ugtP deletion strain. S. aureus RN4220 ugtP deletion, OD600 growth, 16 h; some inactives read as strong as hits. growth inhibition, % (test concentration not listed). hit rate 0.54% among 330,000. AID 1259309;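 active = z-score under -3 and OD600 up to 0.15 on both plates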;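 also: plate controls were untreated wells for no effect and antibiotic for full effect; wells of about 80 µL received 100 nL stock; the first replicate is given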
# Mtb hypoxia inh: inhibitors of hypoxia-regulated fluorescent reporter in Mycobacterium tuberculosis; M. tuberculosis hypoxia-regulated fluorescent reporter, fluorescence; fluorescence inhibition, % (test concentration not listed); hit rate 0.1% among 300,000;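 active = 35 to 45% if threefold the growth effect, above 45% if 1.5-fold the growth effect; inactive = the rest, general growth blockers included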;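 also: wells of about 50 µL received 100 nL stock; 0% = vehicle wells and 100% = reference inhibitor wells; whole bacteria with a GFP reporter of the hypoxia response; strong numbers were not always called active; many hits fall short of the cut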
# Sa RN4220 lethal: kills Staphylococcus aureus RN4220; AID 1259311; S. aureus RN4220 growth, OD600, 16 h; inhibition, % (no concentration beside the values); hit rate 0.33% among 330,000;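 active = z-score of -3 or lower and OD600 up to 0.18 on both plates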;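 also: plate controls were untreated cells for no effect and reference antibiotic for full effect; stock transfer was 100 nL into about 80 µL; one replicate is shown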
# BJeLR viability: BJeLR cell viability loss; BJeLR (HRASV12) viability, CellTiter-Glo ATP luminescence, 48 h; reference of the scale not given here; inhibition, % (concentration not given with the values); hit rate 0.17% among 300,000; AID 1554;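 active = replicate mean above 50%; inconclusive = above 50% but judged a plate artefact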;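 also: 50 nL library stock added to about 25 µL; numbers are from one replicate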
# PrP UTR inh: inhibition of PrP 5' UTR reporter expression; hit rate 0.35% among 340,000; cell-based PrP 5' UTR mRNA reporter, plate reader; inhibition, % (concentration not given with the values);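 active = every replicate at 50% or more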;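 also: 0 = median of the neutral control wells; tested in H4 reporter cells; numbers are from one replicate; inactives centre near -14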
# Bead autofluor: flagged as autofluorescent in microsphere protease counterscreen | compound autofluorescence counterscreen, microsphere flow cytometry; stronger effect = higher value | fluorescence intensity (concentration not given with the values) | hit rate 3.1% among 360,000 | AID 624483;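 active = at least 3 SD above the mean of all compounds, about 16000 in these data; inconclusive = too few beads counted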;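 also: 100 nL of 1 mM stock went into each well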
# Mtb hypoxia inh growth: further read-out of Mtb hypoxia inh, marked with its call; growth inhibition, %; measured here: M. tuberculosis growth (absorbance);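 0% = vehicle and 100% = reference antibiotic; read after six days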
# * marks the source's active call; other numbers are inactive results; ? = inconclusive; · = not tested or not shown.
# A first look, 16 compounds:
SMILES,ugtP null kill,Mtb hypoxia inh,Mtb hypoxia inh growth,Sa RN4220 lethal,BJeLR viability,PrP UTR inh,Bead autofluor
CCOC(=O)COc1ncn(-c2ccccc2)n1,-4,8,-7,3.2,-3,-18,3255
COc1ccc(C(=O)NN(C)c2nc(C(F)(F)F)nc3ccccc23)cc1,3,8,0,-3.8,60*,71*,4870
Fc1ccc(Nc2nc(-c3ccncc3)nc3ccccc23)cc1F,-16,-7,1,-12,-1,-5,2436
O=C(Cn1c2[n+](c3ccc(C(F)(F)F)cc31)CCCCC2)c1cccc([N+](=O)[O-])c1,-6,1,3,-5.7,6,-33,2477
CCCCCCCCC(=O)N/N=C/c1cccc(Br)c1,·,·,·,·,2,-24,12362
COc1ccc(CCN(C)C(=O)c2c(C)nn(-c3ccccc3)c2C)cc1OC,2,7,9,2.4,-4,-9,5488
CCCCNC(=O)Cn1cnc2ccc(S(=O)(=O)N3CCC(C)CC3)cc2c1=O,11,7,-9,8.7,-4,-1,3464
Cc1cc(C(=O)CN2C(=O)NC3(CCCCC3)C2=O)c(C)n1Cc1ccco1,3,-1,-6,7.1,0,-56,3603
O=C(NCc1ccc(F)cc1)C(=O)NCC1OCCN1C(=O)c1cccs1 (configuration not stated),16,11,10,7.2,3,-36,9346
CCCNC(=O)c1cc(C)no1,-2,5,-3,-2.9,5,-17,4030
CCS(=O)(=O)c1ccc(Sc2nncn2C)c([N+](=O)[O-])c1,-1,-7,7,6.2,7,-19,4423
CC(C)(C)OC(=O)Nc1ccc(C(NC(=O)OC(C)(C)C)C(=O)OC(C)(C)C)cc1 (configuration not stated),3,10,-1,8.3,·,·,·
CCOC(=O)C1CCCN(CCC(=O)Nc2c(C(=O)OC)[nH]c3cc(OC)ccc23)C1 (configuration not stated),-12,4,11,7.2,-1,-37,19014*
Cc1cc(NC(=O)CSc2nnc(-c3cccnc3)n2N)no1,-4,·,·,0.4,-1,-12,6034
Cc1cc(C)n(-c2nc3ccccc3nc2Nc2ccc3[nH]c(=O)[nH]c3c2)n1,-4,14,-1,3.1,-11,4,9515
O=c1cc(CO)[nH]cc1OCc1ccccc1,0,1,2,1.4,8,-4,4470

# The list itself, from the first entry:
SMILES,ugtP null kill,Mtb hypoxia inh,Mtb hypoxia inh growth,Sa RN4220 lethal,BJeLR viability,PrP UTR inh,Bead autofluor
CCOC(=O)COc1ncn(-c2ccccc2)n1,-4,8,-7,3.2,-3,-18,3255
COc1ccc(C(=O)NN(C)c2nc(C(F)(F)F)nc3ccccc23)cc1,3,8,0,-3.8,60*,71*,4870
Fc1ccc(Nc2nc(-c3ccncc3)nc3ccccc23)cc1F,-16,-7,1,-12,-1,-5,2436
O=C(Cn1c2[n+](c3ccc(C(F)(F)F)cc31)CCCCC2)c1cccc([N+](=O)[O-])c1,-6,1,3,-5.7,6,-33,2477
CCCCCCCCC(=O)N/N=C/c1cccc(Br)c1,·,·,·,·,2,-24,12362
COc1ccc(CCN(C)C(=O)c2c(C)nn(-c3ccccc3)c2C)cc1OC,2,7,9,2.4,-4,-9,5488
CCCCNC(=O)Cn1cnc2ccc(S(=O)(=O)N3CCC(C)CC3)cc2c1=O,11,7,-9,8.7,-4,-1,3464
Cc1cc(C(=O)CN2C(=O)NC3(CCCCC3)C2=O)c(C)n1Cc1ccco1,3,-1,-6,7.1,0,-56,3603
O=C(NCc1ccc(F)cc1)C(=O)NCC1OCCN1C(=O)c1cccs1 (configuration not stated),16,11,10,7.2,3,-36,9346
CCCNC(=O)c1cc(C)no1,-2,5,-3,-2.9,5,-17,4030
CCS(=O)(=O)c1ccc(Sc2nncn2C)c([N+](=O)[O-])c1,-1,-7,7,6.2,7,-19,4423
CC(C)(C)OC(=O)Nc1ccc(C(NC(=O)OC(C)(C)C)C(=O)OC(C)(C)C)cc1 (configuration not stated),3,10,-1,8.3,·,·,·
CCOC(=O)C1CCCN(CCC(=O)Nc2c(C(=O)OC)[nH]c3cc(OC)ccc23)C1 (configuration not stated),-12,4,11,7.2,-1,-37,19014*
Cc1cc(NC(=O)CSc2nnc(-c3cccnc3)n2N)no1,-4,·,·,0.4,-1,-12,6034
Cc1cc(C)n(-c2nc3ccccc3nc2Nc2ccc3[nH]c(=O)[nH]c3c2)n1,-4,14,-1,3.1,-11,4,9515
O=c1cc(CO)[nH]cc1OCc1ccccc1,0,1,2,1.4,8,-4,4470
O=C(NCc1cccc(Cl)c1)C1CCN(c2nnc(N3CCCC3=O)s2)CC1,11,4,5,5.9,-4,-16,5292
CC1CCC(NC(=O)c2ccc(CNc3c(NC4CCCCC4)c(=O)c3=O)cc2)CC1 (configuration not stated),7,6,3,2.0,-5,-7,4296
CCN(CC)CCC(=O)Nc1cccc2c1C(=O)c1ccccc1C2=O,·,·,·,·,3,-54,?
Cc1ccc(OCC(=O)Nc2ccc(S(=O)(=O)Nc3cc(C)nc(C)n3)cc2)cc1,4,2,6,2.8,0,-33,5646
COc1cc(OC)cc(C(=O)Nc2ccccc2-c2nnn(CC(N)=O)n2)c1,2,3,3,3.8,11,-16,2486
O=S(=O)(NCC(c1ccc2c(c1)OCO2)N1CCOCC1)c1ccc(F)cc1 (configuration not stated),6,-1,4,3.9,-10,-16,5804
CCN(C(=O)CN1C(=O)COc2ccc(S(=O)(=O)N3CCOCC3)cc21)c1ccc(OC)cc1,9,7,-2,5.3,-1,-11,4263
Cc1cc(C)nc(NS(=O)(=O)c2ccc(NC(=O)Nc3ccccc3F)cc2)n1,-2,-1,15,1.4,-3,·,3712
COC(=O)Cc1ccc(NC(=O)c2ccc(C)c(C)c2)cc1,-4,8,10,2.3,-2,-45,24555*
COc1ccccc1CCNC(=O)COc1cccc2c1OC(C)(C)C2,-5,-2,8,0.2,-8,0,6223
CCOC(=O)c1c(C)nsc1NC(=O)C1CCCCC1,9,2,22,1.3,4,11,3728
O=C(C[n+]1ccc(C=NO)cc1)NC(=O)Nc1ccccc1,1,6,2,4.1,·,·,·
CC(C)N=C(NS(=O)(=O)NC(=O)c1ccccc1)c1ccccc1,·,·,·,·,3,-16,4157
Nc1nonc1-n1nnc(C(=O)N/N=C/c2ccccc2Cl)c1COc1ccc(F)cc1,·,·,·,·,4,-27,4328
O=C(OCC(=O)N1CCOCC1)c1c(Cl)ccc(Cl)c1Cl,-3,10,4,-0.6,6,-18,4699
CCNCC(=O)Nc1ccc(N2CCOCC2)cc1,-7,13,5,11,3,13,3127
O=C(CNc1ccc(F)cc1)NN=CC1CC=CCC1 (configuration not stated),5,4,8,2.7,·,·,·
Cc1cc2c(cc(C(=O)OCC(=O)NCc3cccs3)n2C(C)C)o1,1,3,11,-4.5,5,-34,9256
CN(C)/C=C1\C(=O)N(c2ccc([N+](=O)[O-])cc2)N=C1c1ccccc1,3,·,·,24,-1,-12,2325
C#CCOCCOCCOCCNc1nc(N2CCN(C(=O)C(CCC(=O)O)n3cc(C(N)CC(C)C)nn3)CC2)nc(N2CCN(C(=O)C(Cc3cc4ccccc4[nH]3)n3cc(C(N)Cc4ccc(O)cc4)nn3)CC2)n1 (configuration not stated),·,·,·,·,7,-11,3448
O=C(O)C(=NNC(=O)c1ccc(Cl)cc1)c1ccccc1,6,7,2,5.0,·,·,·
COc1ccc(CCNC(=S)Nc2ccc(C)cc2C)cc1,4,-8,3,2.8,3,-6,2411
Cc1ccccc1S(=O)(=O)N1C(c2ccc(Cl)cc2)CC=C(C(=O)O)C1c1cccc(Cl)c1 (configuration not stated),44,6,0,31,·,·,·
CCC1CCCCN1CCCNC(=O)c1ccc2c(=O)n(CCOC)c(=O)[nH]c2c1 (configuration not stated),11,-2,-8,0.0,1,-16,3562
CCCC(=O)Nc1nnc(/C=C/c2ccc(OC)cc2)s1,-15,-8,-6,5.2,0,-11,4155
O=C(NCCCNC(=O)c1ccccc1Cl)c1cnccn1,-1,0,-3,3.4,3,-1,4420
Cc1ccc(OCCn2nc3ccccc3n2)c(C)c1,9,11,10,5.9,-11,-32,9818
CC(=NOC(=O)c1ccc(F)cc1)c1nccs1,-5,11,1,2.8,·,·,3889
CC1CC(C)CN(CCC(=O)Nc2ccc3c(c2)CCC3)C1 (configuration not stated),5,13,11,2.5,-7,-9,2130
COc1ccc(-c2cc(=O)oc3c(C)c(OCC(=O)NCC4CCC(C(=O)O)CC4)ccc23)cc1 (configuration not stated),-4,·,·,5.1,-9,1,5741
COc1ccc(NC(=O)CCCNC(=O)c2ccc(Cl)cc2)cc1S(=O)(=O)N1CCCCC1,4,-3,9,3.4,·,-10,3461
Cc1ccc(S(=O)(=O)N2CCN(C(=O)c3c(-c4ccccc4)noc3C)CC2)c(C)c1,7,0,-1,4.1,-6,-5,3834
Cc1ccc(NC(=O)CN(C)C(=O)CNC(=O)c2cccs2)cc1,·,·,·,·,2,3,6413
Cc1c(C(=O)Nc2ccc(F)c(F)c2)oc2ccc(S(=O)(=O)N3CCCCC3)cc12,-5,2,-4,-21,5,-3,9605
O=C(CSc1ccc(Cl)cc1)N1CCOCC1,7,·,·,2.3,0,-5,4628
Cc1ccc(/C=N/N2CCN(c3ccccn3)CC2)cc1,·,·,·,·,5,-82,4520
COC(=O)Cc1c(C)nc2nc(-c3cccnc3)[nH]n2c1=O,-4,0,0,-1.4,4,-19,8076
C=CCO/N=C(/C)c1ccc(Oc2cnccn2)cc1,·,·,·,·,0,-18,2564
O=C(Cn1cccc1)Nc1ccc(F)cc1F,2,-4,-1,-4.6,7,-19,7667
O=C(CNC(=O)c1ccccc1)OCCOc1cccc(Cl)c1,8,-1,7,1.6,-2,-1,?
CC(=O)c1cccc(OCC(O)CN2CCN(C(=O)c3ccco3)CC2)c1 (configuration not stated),3,1,7,3.9,-2,-14,3602
Cc1ccccc1NC(=O)CSc1ccc(-c2ccc(-n3cccn3)cc2)nn1,-1,-2,-3,1.9,-4,1,?
CCOC(=O)c1c(NC(=O)/C=C/C(=O)O)sc(C)c1-c1ccc(C)c(C)c1,10,8,4,33,4,9,3336
Cc1ccc(C(=O)Cn2c(NCCO)nc3ccccc32)cc1,-4,·,·,-5.7,-1,-5,4416

# Additional results:
SMILES,ugtP null kill,Mtb hypoxia inh,Mtb hypoxia inh growth,Sa RN4220 lethal,BJeLR viability,PrP UTR inh,Bead autofluor
O=C(NCCNC(=O)c1ccccn1)c1ccccc1,5,1,-5,0.7,2,-10,5626
O=C(CSc1nnc(-c2cccnc2)o1)Nc1ccc(Cl)cc1,10,-1,4,-0.8,8,-46,2783
CCOC(=O)C(C)Oc1cc(C)cc2oc(=O)c3c(c12)CCCC3 (configuration not stated),-4,1,-10,2.4,3,-13,8607
CCOc1ccc(S(=O)(=O)N2CCCCC2)cc1NC(=O)C1CSC2(C)CCC(=O)N12 (configuration not stated),0,-3,7,2.8,2,-1,?
Cc1c(C(=O)NCC2CCCO2)oc2ccc3c(c12)C(=O)CC(C)(C)O3 (configuration not stated),-9,7,3,-0.5,-8,-78,3148
O=C1c2cccc3cccc(c23)C(=O)N1c1ccc2ncccc2c1,1,-13,-3,9.3,·,-13,3315
O=C(OCC(=O)N1CCN(c2ccccc2)CC1)c1ccccc1NCCO,11,3,1,2.4,4,-20,5957
O=C(CSc1nc2nn(-c3ccccc3)c(=O)c-2c2n1CCCCC2)NCCc1ccccc1,-5,-6,6,-7.3,-8,-14,4316
COc1ccc(-c2nc(SC(C)C(=O)NCC3CCCO3)n[nH]2)cc1 (configuration not stated),1,1,-2,5.4,18,-10,6474
O=C(NC(=S)Nc1ccccc1Br)c1ccco1,-18,-5,-9,1.1,-3,-29,5556
Cc1ccc(Nc2nc(C(=O)N3CCC(C(=O)NCCN4CCOCC4)CC3)cs2)cc1,1,18,2,0.9,4,-14,8582
CN(CC(=O)Nc1ccc(F)c(F)c1F)C(=O)CCCSc1nc2ccccc2[nH]1,-4,4,5,-0.3,-6,-13,?
Oc1ccc2ccccc2c1C=NNc1nnc(-c2ncc[nH]2)c2ccccc12,15,17,6,40,·,·,·
COC(=O)c1c(NC(=O)C2CC=CCC2C(=O)O)sc(C)c1C (configuration not stated),-5,-1,-4,10,-3,-12,22701*
CC(C)c1c(C(=O)NN=Cc2ccc3c(c2)OCO3)nnn1-c1nonc1N,3,8,1,3.5,·,·,·
